FGF22 binding: binders of recombinant human FGF22 by thermal shift; AID 651658; Q9HCT0; calls only at 9.99 µM; SYPRO orange fluorescence; percent of sucrose octasulfate shift, DMSO zero; 340,000 compounds, 1.5% hits;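 active = melting point raised past a set limit in the mean and every replicate; inconclusive = no clear call; three in four hits are not shown here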
Target sequence (Q9HCT0 whole entry, looked up): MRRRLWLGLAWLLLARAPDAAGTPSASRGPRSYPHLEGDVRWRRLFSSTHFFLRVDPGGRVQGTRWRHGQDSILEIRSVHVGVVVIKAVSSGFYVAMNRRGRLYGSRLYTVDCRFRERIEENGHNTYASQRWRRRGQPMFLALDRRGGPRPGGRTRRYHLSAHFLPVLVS
ALR H2O2 inh: blocks human ALR sulfhydryl oxidase activity; 290,000 compounds, 3.8% hits; purified ALR, DTT oxidation, H2O2 HRP-luminol luminescence; inhibition, % (test concentration not listed);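 active = mean and each replicate at 75% or more; inconclusive = only one of the two met; inactive = neither met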;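 note: stock transfer was 7.5 nL into about 7.5 µL; 0% = neutral wells and 100% = wells with inactivated enzyme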
Target sequence (P55789 whole entry, looked up): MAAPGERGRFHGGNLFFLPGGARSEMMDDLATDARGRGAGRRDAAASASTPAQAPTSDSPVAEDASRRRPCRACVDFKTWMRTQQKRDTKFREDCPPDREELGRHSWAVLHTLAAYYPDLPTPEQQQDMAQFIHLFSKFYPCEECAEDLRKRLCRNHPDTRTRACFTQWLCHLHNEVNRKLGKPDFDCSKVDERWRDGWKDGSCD
AF4-AF9 inh: MLL-AF4/AF9 protein interaction inhibition; P42568; AlphaScreen, biotin-AF4 peptide binding to FLAG-AF9; AID 651704; inhibition, % at 10 µM; 350,000 compounds, 0.47% hits;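 active = every replicate reaching a set inhibition limit, whatever the replicate mean, cut at about 25% in these data; inconclusive = mean inhibition reaches that limit but some replicates miss it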;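 note: 0% = plate neutral control median and 100% = total signal loss; the record names both 10 and 1 µM as test concentration; the first replicate is given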
Target sequence (P42568 whole entry, looked up): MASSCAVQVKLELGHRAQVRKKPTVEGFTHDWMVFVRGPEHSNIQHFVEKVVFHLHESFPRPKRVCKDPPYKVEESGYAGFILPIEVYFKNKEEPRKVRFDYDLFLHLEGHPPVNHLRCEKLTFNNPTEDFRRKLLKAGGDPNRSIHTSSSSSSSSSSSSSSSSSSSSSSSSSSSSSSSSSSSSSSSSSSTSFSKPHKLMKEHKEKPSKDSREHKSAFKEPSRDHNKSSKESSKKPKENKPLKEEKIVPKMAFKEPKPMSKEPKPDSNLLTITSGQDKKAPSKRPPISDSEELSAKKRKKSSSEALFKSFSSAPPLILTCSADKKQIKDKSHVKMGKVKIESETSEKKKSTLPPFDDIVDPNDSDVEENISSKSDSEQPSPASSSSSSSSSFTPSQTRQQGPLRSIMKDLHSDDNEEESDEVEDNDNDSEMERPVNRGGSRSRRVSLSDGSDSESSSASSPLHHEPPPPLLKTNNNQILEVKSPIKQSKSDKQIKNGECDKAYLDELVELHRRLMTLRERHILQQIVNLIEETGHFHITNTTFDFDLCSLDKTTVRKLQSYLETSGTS
T cruzi repl: T. cruzi replication inhibition; T. cruzi beta-gal in NIH3T3, luminescence, 90 h; inhibition, % (no concentration beside the values); 300,000 compounds, 1.4% hits;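 active = mean inhibition across valid replicates above about 55%, limit read from the data; inconclusive = mean below that limit but half or more replicates reach it; inactive = mean below it, under half of replicates reach it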;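 note: signal also drops with host cell toxicity which is not excluded here; 0% = plate median of DMSO wells and 100% = zero luminescence signal; higher percent means less beta-gal luminescence so fewer parasites; stock transfer was 50 nL into about 50 µL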
RanGTP-Impb inh: inhibitors of RanGTP-importin-beta interaction, primary screen, biochemical, FRET, CFP-Ran, YFP-importin-beta, homogeneous | cell-free CFP-Ran/YFP-importin-beta FRET ratio | inhibition, % (no concentration beside the values) | 300,000 compounds, 1.1% hits | AID 2216;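 active = most replicates above 15%; inconclusive = exactly half above 15%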;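 note: 0% = DMSO wells and 100% = Ran loaded with GDP instead of GTP; wells of about 40 µL received 100 nL stock; the first replicate is given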
rRNA inh HTS: inhibitors of bacterial rRNA selective over humanized ribosomes | 350,000 compounds, 1.6% hits | GFP signal change (wild-type ribosome), % (no concentration beside the values) | E. coli WT GFP vs humanized-ribosome RFP mutants, fluorescence, 24 h; hits give low values; DMSO median 0, no signal -100;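 active = significant combined selectivity score with lowered wild-type GFP, culture density cut under 30%, mutant RFP and density less affected; inactive = any of these conditions unmet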; note: one replicate is shown; some compounds called inactive have numbers as strong as hits
Calb FLC: affects C. albicans growth with fluconazole; AID 1979; C. albicans CaCi-2 (fluconazole-resistant clinical isolate) + fluconazole, Alamar Blue growth, 48 h; 300,000 compounds, 0.57% hits; growth inhibition, % (no concentration beside the values);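 active = most replicates above 75%; inconclusive = exactly half above 75%; inactive = most below 75%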;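 note: all wells also contain fluconazole at 8 µg/ml as a sub-toxic cotreatment; 0% = median of DMSO wells and 100% = median of geldanamycin control wells; wells of about 8 µL received 7.5 nL stock; the first replicate is given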
Beta apoptosis: blocks beta cell apoptosis; protection from apoptosis, % (test concentration not listed); INS-1E cytokine-induced death, ATP luminescence, 48 h; percent of positive-control rescue, neutral wells zero; AID 435005; 300,000 compounds, 0.8% hits;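 active = all replicates at 75% or more, or half of them and the mean; inconclusive = half reach 75% but not the mean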;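 note: 0% = cytokine-treated negative control wells and 100% = positive control rescue; higher means more ATP so stronger rescue from cytokine killing; wells of about 40 µL received 100 nL stock; the first replicate is given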
rRNA inh HTS OD600: further read-out of rRNA inh HTS, marked with its call; OD600 change, %; measured here: OD600 growth;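 optical density of the mix in the first replicate; 0 = DMSO median and -100 = no signal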
rRNA inh HTS RFP: second read-out of rRNA inh HTS, no call of its own (marks repeat the call); RFP signal change, %; measured here: RFP humanized mutant strains;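 first replicate; 0 = DMSO median and -100 = no signal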
The depositor's hits bear a star; i = inactive; ? = inconclusive; . = not tested or not shown. These rows are one share of the data; the hit share may differ from the screen's.

A first look (2 entries):
Below each compound: FGF22 binding	ALR H2O2 inh	AF4-AF9 inh	T cruzi repl	RanGTP-Impb inh	rRNA inh HTS	rRNA inh HTS OD600	rRNA inh HTS RFP	Calb FLC	Beta apoptosis
- Cn1c(-c2cccc([N+](=O)[O-])c2)cnc1NCc1cccc([N+](=O)[O-])c1
→ i	66	?	24	5.1	8	3	0.4	5	1
- COc1ccc(CNC(=O)CSc2nc3[nH]ncc3c(=O)n2-c2ccccc2Br)cc1
→ .	-11	.	-1	-6.9	.	.	.	-5	-2

Main list, from the start:
Below each compound: FGF22 binding	ALR H2O2 inh	AF4-AF9 inh	T cruzi repl	RanGTP-Impb inh	rRNA inh HTS	rRNA inh HTS OD600	rRNA inh HTS RFP	Calb FLC	Beta apoptosis
- Cn1c(-c2cccc([N+](=O)[O-])c2)cnc1NCc1cccc([N+](=O)[O-])c1
→ i	66	?	24	5.1	8	3	0.4	5	1
- COc1ccc(CNC(=O)CSc2nc3[nH]ncc3c(=O)n2-c2ccccc2Br)cc1
→ .	-11	.	-1	-6.9	.	.	.	-5	-2
- CC(C)CC(=O)NCCNC(=O)c1cc(OCC(F)(F)F)ccc1OCC(F)(F)F
→ .	-23	.	-3	-3.5	.	.	.	-2	0
- O=C(O)CCC(=O)N1CCN(S(=O)(=O)c2cccs2)CC1
→ i	-2	0.0	-5	-0.3	5	4	1.0	-4	-3
- CC(=O)N1CCN(c2ccccc2NC(=O)c2ccc(C#N)cc2F)CC1
→ i	1	-2.0	4	3.8	8	-3	-2.3	0	2
- Cc1cccc(CC2CC(=O)N(c3ccc(C)cc3Br)C2=O)c1 (stereo not given)
→ .	18	-2.8	0	-1.2	-15	-26	2.6	7	-4
- Cc1csc(NC(=O)CSC2=NS(=O)(=O)c3ccccc3N2)n1
→ i	-4	9.2	-10	0.0	-1	-2	0.6	-9	-9
- O=C(COc1ccccc1Cl)N1CCCCCCC1
→ i	-10	10	-4	-0.1	-10	-7	-0.3	-5	-7
- Cc1ccc(C)c(NC(=S)NC(=O)c2cncc(Br)c2)c1
→ i	10	-1.1	13	-1.7	23	18	0.6	-41	-1
- CCCCNCCOc1ccccc1-c1ccccc1
→ .	-18	.	12	-0.4	.	.	.	-8	10
- C=CCn1c(-c2cccnc2Cl)nc2ccccc21
→ i	-2	-1.6	-7	?	.	.	.	-25	-8
- CC1=NN(S(=O)(=O)c2ccc(F)cc2)C(=O)c2ccccc2O1
→ .	1	.	-8	13	.	.	.	3	0
- Cc1cccc(N2CCN(CC3CCCCC3)CC2)c1C
→ i	-2	3.6	11	-0.4	-12	5	-1.6	-6	-2
- O=C(Nc1cccc(S(=O)(=O)N2CCCCC2)c1)C1CC(=O)N(Cc2ccccc2)C1 (stereo not given)
→ i	-4	-0.2	.	.	-24*	-9.1*	5.0*	.	0
- CC(C)Cn1c(SCC(=O)NCc2ccco2)nnc1-c1ccncc1
→ i	-8	-2.4	-7	6.4	13	9	-0.5	-3	.
- CC1(C)CC(=O)C([N+](=O)[O-])=C(NCCCC(=O)O)C1
→ .	2	.	-4	1.0	.	.	.	8	-7
- COc1cccc(CN(C)C(=O)CNC(=O)c2cccs2)c1OC
→ i	-4	-1.9	-7	-1.7	2	7	-1.5	1	-4
- COc1ccccc1CNC(=O)CN1CCN(c2ccc(C(C)=O)cc2)CC1
→ i	-35	1.2	6	-3.9	0	6	0.5	-6	-1
- COC(=O)C1=C(C)N(CCCC(=O)O)C(=O)NC1c1ccc2c(c1)OCO2 (stereo not given)
→ i	-2	-0.1	-16	-1.5	3	9	-1.5	-16	2
- O=C(NCCOC(=O)c1cccs1)c1cccnc1
→ .	-7	.	-3	0.4	.	.	.	-1	1
- NNC(=O)/C(=C\c1cccs1)NC(=O)c1ccccc1
→ .	.	.	-26	1.7	.	.	.	1	-4
- Cc1cccc(NC(=O)Cn2nc([N+](=O)[O-])c(Br)c2C)n1
→ i	7	0.1	9	4.1	17	9	0.4	-18	-1
- CCOC(=O)CSc1nnc(NC(=O)c2cc([N+](=O)[O-])cc([N+](=O)[O-])c2)s1
→ .	-12	.	-5	-0.1	.	.	.	?	3
- O=C(CCCn1c(=S)[nH]c2cc3c(cc2c1=O)OCO3)N1CCc2ccccc2C1
→ .	-1	.	8	5.8	.	.	.	13	3
- Cc1cc(F)ccc1NCC(=O)Nc1ccccc1Br
→ .	.	.	-2	0.6	.	.	.	6	-4
- Cc1nc(SCC(=O)N2CCOCC2)c2c(=O)n(C)c(=O)n(CC(C)C)c2n1
→ i	-4	8.1	.	.	4	5	0.5	.	4
- C#CCN(CC=C)C(=O)C1CCC(=O)N(CCCc2ccccc2)C1 (stereo not given)
→ i	-5	-1.7	?	6.2	13	3	-2.8	11	-1
- CCc1cccc2c1NC(=O)[C@]21[C@@H]2C(=O)N(Cc3ccccc3)C(=O)[C@@H]2[C@@H]2CCCN21
→ .	0	.	-3	-4.9	.	.	.	23	-1
- CCOc1ccc(NC(=O)N(Cc2ccc(C)cc2)Cc2ccccn2)cc1
→ i	-15	-1.3	0	-1.1	-8	-11	1.0	-1	4
- Cc1ccc(C)c(OCC(=O)Nc2ccc(S(=O)(=O)Nc3ncccn3)cc2)c1
→ i	5	-0.2	-17	2.8	0	1	-2.4	-3	.
- Cc1cc(C(=O)N2CC=C(c3ccccc3)CC2)c2ccccc2n1
→ i	-22	-6.6	-8	5.2	-2	2	-0.1	0	11
- CC(NC(=O)CNC(=O)C(Cc1ccccc1)NC(=O)OCc1ccccc1)C(N)=O (stereo not given)
→ i	6	-4.3	11	-4.8	-1	3	-1.3	0	-4
- Cn1c(/C=C/c2cccc(Br)c2)nc2ccccc2c1=O
→ i	1	-9.8	31	-1.2	6	8	-0.4	9	8
- CC1(C)CCC(=O)C=C1Nc1ccc(F)c(Cl)c1
→ i	12	3.3	13	26*	15	19	8.9	7	4
- CCCNC(=O)COC(=O)c1c2c(nc3ccccc13)CCC2
→ i	2	-11	-8	-1.7	5	8	-1.4	5	.
- CC(C)NC(=O)c1onc(CSc2ccc(F)c(F)c2)c1C(=O)NC(C)C
→ .	0	.	-10	-2.1	.	.	.	2	-7
- Cc1[nH]c(=O)[nH]c(=O)c1/C=C/C(=O)O
→ i	.	-0.7	-18	0.2	14	5	0.7	-3	-1
- CCCCNC(=O)CN1C(=O)NC(Cc2ccccc2)(Cc2ccccc2)C1=O
→ i	2	51*	-3	2.2	0	1	-1.4	0	0
- Cc1ccc(N=C2NC(=O)c3cccc([N+](=O)[O-])c32)cc1
→ i	.	2.1	-10	-3.6	14	3	-1.8	-33	-1
- CCOC(=O)C1=C(CS(=O)(=O)c2ccc(Cl)cc2)NC(=O)NC1c1ccc(O)c(OC)c1 (stereo not given)
→ i	50	2.0	-6	0.7	-3	-7	3.0	-1	1
- O=C(CSCc1ccccc1)Nc1cccc(C(=O)Nc2ccccc2C(=O)O)c1
→ .	98*	.	-14	-2.5	.	.	.	23	-2
- CCOC(=O)c1c(C)nsc1NCc1ccccc1
→ i	-5	.	0	0.9	-29*	-4.0*	-3.1*	-2	-6
- Cn1cc(-c2cccc(Cl)c2)cc(C#N)c1=O
→ .	-15	-1.2	-13	-0.3	6	-5	-4.6	-30	2
- Nc1cc(-c2ccccc2)nn1Cc1ccc(Cl)cc1
→ .	3	.	32	1.0	.	.	.	0	-8
- O=S(=O)(c1ccc(N2CCCCCC2)nc1)N1CCCC1
→ .	-1	-0.8	9	1.1	15	8	1.3	-22	-9
- COC(=O)C(CC(C)C)NC(=O)CSc1nc(-c2ccccc2)c(C#N)c(=O)[nH]1 (stereo not given)
→ .	4	.	-9	0.1	.	.	.	9	-12
- CCOc1ccccc1C(=O)NC1CC2CCCC(C1)N2Cc1nnnn1Cc1ccco1 (stereo not given)
→ .	.	.	29	6.3	.	.	.	4	9
- COc1ccc(C(=O)N2CC3(CC(c4cccc(NC(=O)CC(c5ccccc5)c5ccccc5)c4)=NO3)C[C@H]2C(N)=O)cc1 (stereo not given in full)
→ i	-1	-7.9	51	-2.2	0	3	-1.6	5	3
- COc1ccccc1C(=O)N1CCN(CCc2ccccc2)CC1
→ .	-1	.	-7	2.4	.	.	.	-23	-1
- COc1ccc(/C=N/Nc2cc(C)nc3ccccc23)cc1
→ i	56	17	64*	?	-30	-67	-0.6	-12	50
- CC(=O)NC(CC(=O)N(C)Cc1c(F)cccc1Cl)c1ccccc1 (stereo not given)
→ .	.	-0.7	-8	5.1	14	5	1.9	-1	-9
- Cc1ccsc1C(=O)OC1CCOC1=O (stereo not given)
→ .	-10	.	-7	1.6	.	.	.	-5	-3
- CCC(=O)NC(c1cccs1)c1cc(Cl)c2ccccc2c1O (stereo not given)
→ i	35	1.9	.	.	-55	-74	-26	.	-14
- O=C1CC(C(F)(F)F)=NN1
→ .	8	-2.5	-20	-0.5	25	23	1.2	-18	-5
- CC1CCN(S(=O)(=O)c2ccc(C(=O)OC(C)C(=O)NC3CCCCC3C)cc2)CC1 (stereo not given)
→ i	-3	-9.8	23	-2.9	5	6	1.8	-3	6
- O=C(NCCCn1ccnc1)C(=O)NCc1ccccc1
→ .	0	.	11	-3.7	.	.	.	-13	0
- CC(C)C(OC(=O)C1CCCO1)C(=O)NC1CCCC1 (stereo not given)
→ .	-2	.	-6	-1.6	.	.	.	35	-2
- COC(=O)C1=C(C)N(CCCC(=O)O)C(=O)NC1c1ccccc1Cl (stereo not given)
→ i	-2	-16	2	-0.9	-3	-12	0.4	0	-5
- Cc1cccn2c(=O)c3cc(C(=O)NCc4ccco4)c(=N)n(C4CCCC4)c3nc12
→ i	.	-4.2	32	130*	-17	-15	1.2	-4	16
- CC(=O)Nc1ccc(S(=O)(=O)Nc2ccc(N3CCOCC3)c(F)c2)cc1
→ .	4	.	-2	3.2	.	.	.	9	3

From PubChem
